RanGTP-Impb inh – inhibitors of RanGTP-importin-beta interaction, primary screen, biochemical, FRET, CFP-Ran, YFP-importin-beta, homogeneous; cell-free CFP-Ran/YFP-importin-beta FRET ratio; inhibition, % (concentration not given with the values); AID 2216, 2009; Ran GTPase (GTP-bound) - importin-beta complex; 300,000 compounds, 1.1% hits;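 active = most replicates above 15%; inconclusive = exactly half above 15%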;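 also: 0% = DMSO wells and 100% = Ran loaded with GDP instead of GTP; wells of about 40 µL received 100 nL stock; the first replicate is given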
Beta apoptosis – inhibitors of cytokine-induced beta cell apoptosis, primary screen, luminescence; INS-1E cytokine-induced death, ATP luminescence, 48 h; percent of positive-control rescue, neutral wells zero; protection from apoptosis, % (no concentration beside the values); 300,000 compounds, 0.8% hits; AID 435005, 2010;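 active = all replicates at 75% or more, or half of them and the mean; inconclusive = half reach 75% but not the mean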;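 also: 0% = cytokine-treated negative control wells and 100% = positive control rescue; higher means more ATP so stronger rescue from cytokine killing; wells of about 40 µL received 100 nL stock; the first replicate is given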
Calb FLC – C. albicans growth inhibition with fluconazole, primary screen, CaCi-2 strain, Alamar Blue fluorescence; growth inhibition, % (no concentration beside the values); AID 1979, 2009; 300,000 compounds, 0.57% hits; C. albicans CaCi-2 (fluconazole-resistant clinical isolate) + fluconazole, 48 h;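 active = most replicates above 75%; inconclusive = exactly half above 75%; inactive = most below 75%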;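 also: all wells also contain fluconazole at 8 µg/ml as a sub-toxic cotreatment; 0% = median of DMSO wells and 100% = median of geldanamycin control wells; wells of about 8 µL received 7.5 nL stock; the first replicate is given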
AF4-AF9 inh – inhibitors of AF4 peptide binding to AF9, primary screen, biochemical, AlphaScreen, biotin-AF4 peptide, FLAG-AF9, single point; inhibition, % at 10 µM; 350,000 compounds, 0.47% hits; AID 651704, 2012;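 active = every replicate reaching a set inhibition limit, whatever the replicate mean, cut at about 25% in these data; inconclusive = mean inhibition reaches that limit but some replicates miss it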;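 also: 0% = plate neutral control median and 100% = total signal loss; the record names both 10 and 1 µM as test concentration; the first replicate is given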
A1 inh – caspase 3/7 activation in MEF A1-2A-BIM cells, primary screen, A1 inhibitor project, cell-based, luminescence, HTS; Caspase-Glo 3/7 luminescence, 3 h; percent of clofoctol response, vehicle zero; caspase activation, % (test concentration not listed); 330,000 compounds, 0.066% hits; AID 2462, 2010;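 active = over half of replicate activation scores above 10%, or exactly half above 10 with the replicate mean above 10; inconclusive = replicate mean below 10 yet half the replicates above 10; inactive = over half of replicates below 10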;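 also: wells of about 30 µL received 50 nL stock; many hits fall short of the cut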
T cruzi inh – inhibitors of intracellular T. cruzi growth, primary screen, luminescence, NIH3T3 host cells; 300,000 compounds, 1.4% hits; T. cruzi beta-gal in NIH3T3, 90 h; inhibition, % (concentration not given with the values);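 active = mean inhibition across valid replicates above about 55%, limit read from the data; inconclusive = mean below that limit but half or more replicates reach it; inactive = mean below it, under half of replicates reach it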;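 also: signal also drops with host cell toxicity which is not excluded here; 0% = plate median of DMSO wells and 100% = zero luminescence signal; higher percent means less beta-gal luminescence so fewer parasites; stock transfer was 50 nL into about 50 µL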
Vif TR-FRET – inhibitors of Vif binding to APOBEC3G peptide, primary screen, biochemical, TR-FRET, GST-Vif 1-94, biotin-A3G peptide, dose response retest (AID 1117319) | Virion infectivity factor (Human immunodeficiency virus type 1 group M subtype B (isolate … | TR-FRET GST-Vif / biotin-A3G peptide binding; higher % means a stronger effect; test concentration not given here; strong numbers were not always called active | one-dose inhibition, %; IC50 in µM for titrated hits | 260,000 compounds, 0.57% hits;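 active = above the screen mean plus three standard deviations and confirmed in dose response; inconclusive = results disagree or hit not tested in dose response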;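 also: Vif residues 1-94 fused to GST binding biotinylated APOBEC3G peptide 110-148; 0% = full assay without inhibitor and 100% = GST in place of GST-Vif; retest series ran down from 100 µM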
LANA-H2B inh – blockers of LANA interaction with H2A/H2B – biochemical, FP readout, HTS, primary screen; Protein LANA1 (Human herpesvirus 8 type P (isolate GK18)), Q9QR71; cell-free LANA-H2A/H2B peptide, fluorescence polarization; inhibition, % (concentration not given with the values); 320,000 compounds, 0.6% hits; AID 2629, 2010; in the data active = inhibition mostly above about 10%, no sharp cut-off; inactive = mostly below about 6.7%;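 also: stock transfer was 7.5 nL into about 10 µL; 0% = median of vehicle wells and 100% = median of positive control wells; one replicate is shown; the record names a cut of 25% in any replicate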
Target sequence (Q9QR71 whole entry, looked up): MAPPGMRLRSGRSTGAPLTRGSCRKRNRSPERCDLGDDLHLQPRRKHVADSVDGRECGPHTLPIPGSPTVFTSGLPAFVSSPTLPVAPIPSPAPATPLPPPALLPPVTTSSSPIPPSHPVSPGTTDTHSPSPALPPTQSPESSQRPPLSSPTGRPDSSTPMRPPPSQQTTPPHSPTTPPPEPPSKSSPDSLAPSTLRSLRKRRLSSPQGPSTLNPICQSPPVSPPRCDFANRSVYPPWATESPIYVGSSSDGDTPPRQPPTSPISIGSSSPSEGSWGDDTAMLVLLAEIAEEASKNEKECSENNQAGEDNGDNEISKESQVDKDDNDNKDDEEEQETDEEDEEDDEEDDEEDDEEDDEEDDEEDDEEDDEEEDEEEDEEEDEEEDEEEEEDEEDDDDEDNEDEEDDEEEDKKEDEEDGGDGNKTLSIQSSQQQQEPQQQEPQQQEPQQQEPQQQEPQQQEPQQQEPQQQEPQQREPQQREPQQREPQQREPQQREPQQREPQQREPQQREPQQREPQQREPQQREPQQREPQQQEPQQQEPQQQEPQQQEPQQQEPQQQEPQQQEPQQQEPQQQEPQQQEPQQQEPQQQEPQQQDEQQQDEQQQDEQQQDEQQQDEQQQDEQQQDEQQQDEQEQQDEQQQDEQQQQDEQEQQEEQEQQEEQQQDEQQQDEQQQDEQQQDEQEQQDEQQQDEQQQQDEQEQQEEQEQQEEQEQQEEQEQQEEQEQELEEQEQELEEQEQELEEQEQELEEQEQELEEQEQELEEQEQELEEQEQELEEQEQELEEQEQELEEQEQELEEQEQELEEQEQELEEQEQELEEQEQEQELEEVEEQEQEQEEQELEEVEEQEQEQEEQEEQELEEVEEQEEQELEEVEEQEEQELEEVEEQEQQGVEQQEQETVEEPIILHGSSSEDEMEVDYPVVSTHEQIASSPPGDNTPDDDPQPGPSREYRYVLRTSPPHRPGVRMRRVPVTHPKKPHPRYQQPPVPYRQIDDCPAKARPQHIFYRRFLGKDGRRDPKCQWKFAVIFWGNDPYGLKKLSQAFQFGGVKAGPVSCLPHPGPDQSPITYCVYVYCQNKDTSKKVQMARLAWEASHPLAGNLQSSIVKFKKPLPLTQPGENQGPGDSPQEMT
An asterisk follows results filed as active; ? = inconclusive; · = not tested or not shown; & = joins results of further samples.

SMILES	RanGTP-Impb inh	Beta apoptosis	Calb FLC	AF4-AF9 inh	A1 inh	T cruzi inh	Vif TR-FRET	LANA-H2B inh
C/C(=N\NC(=O)C1CCCC1)c1ccc(Cl)cc1	·	1	-9	0.9	-2.3	·	-3%	-0.7
O=c1c2ccccc2nc(SCc2nnc(-c3ccccc3Br)o2)n1Cc1ccco1	5.0	1	?	·	1.3	17	-1%&-4%	-0.8
CCOC(=O)c1cccc(P(=O)(C(C)(C)C)C(C)(C)C)c1	-0.2	-6	2	-5.1	0.1	-13	·	0.3
CCSc1oc(-c2cccs2)nc1S(=O)(=O)c1ccccc1	3.9	-6	-6	3.3	-0.3	16	-3%	-0.9
CCN=c1scc(-c2ccco2)n1/N=C/c1ccc(OC)c(O)c1	1.1	9	-5	22	-5.1	-15	?	1.7
Cc1ccc(-c2nc3ccccn3c2Nc2ccccc2)o1	-3.5	-4	11	1.8	-1.0	2	?	2.0
O=C(NCCN1CCOCC1)c1ccc2c(c1)N(Cc1ccccc1)C(=O)CS2	-1.7	-10	9	·	0.1	-3	1%	3.5
Cc1ccc(N(Cc2cc3ccccc3[nH]c2=O)C(=O)c2cccs2)cc1C	0.1	·	8	-2.1	·	12	-5%	·
CCOc1ccc(CCNC(=O)COC(=O)C2=NNC(=O)CC2)cc1OCC	5.2	1	·	-12	-0.2	1	0%	0.2
O=C(c1ccc(Cl)c(S(=O)(=O)N2CCCCC2)c1)N1CCCC1	-1.2	-5	2	-1.5	1.3	15	5%	18
CCn1c(SCC(=O)NCc2ccccc2)nnc1-c1c[nH]c2ccccc12	0.9	·	6	·	·	0	2%	·
CCN(CC)S(=O)(=O)c1cc(-c2nnc(-c3ccc(Br)cc3)o2)ccc1Cl	-1.8	6	1	·	1.3	-2	?	-0.7
COc1ccc(OCCCC(=O)Nc2ncn[nH]2)cc1	-0.1	-6	-16	-0.6	0.3	-17	1%	1.9
COC/C=C/C1=CC2=CC(=O)C(C)(OC(=O)C3CCCC3)C(=O)C2=CO1 (stereo not drawn)	1.3	6	-3	·	-0.2	-6	2.8µM*	0.2
COc1cccc2c1OCC([C@@H]1C[C@H]3CN(Cc4cccc(Cl)c4)C(=O)[C@]34CCCN14)=C2	-4.9	1	10	6.0	-1.3	13	18%	-2.2
CC(NC(=O)c1ccccc1)C(=O)N/N=C/c1ccco1 (stereo not drawn)	2.3	-3	-26	2.5	0.4	-10	·	-1.2
Cc1cccc(NC(=O)CSc2nnc(-c3ccc(S(=O)(=O)N4CCCC4)cc3)o2)c1	2.3	2	13	5.3	0.3	10	0%	-5.6
O=C(Nc1ccccc1)c1cccc(C(F)(F)F)c1	?	-10	-3	·	-1.1	-15	1%	-2.4
O=c1[nH]cnc2nc3n(c12)CCCCC3	6.6	-1	11	·	-0.5	6	1%	-1.7
CC(=O)c1c(C)[nH]c(C(=O)COc2ccc(C#N)cc2)c1C	-1.9	-3	-2	·	-1.2	-3	-9%	-1.6
COc1ccc(CCn2ccc(O)c(Cc3c(F)cccc3Cl)c2=O)cc1OC	7.2	4	24	0.4	1.0	1	0%	3.6
CS(=O)(=O)N(CC(=O)NCCSc1ccccn1)c1cccc2ccccc12	4.0	3	3	-4.8	-0.6	-9	2%	0.3
CCn1c(C)cs/c1=N\S(=O)(=O)c1ccccc1	4.5	2	-1	-2.5	0.3	-7	·	1.6
CCOc1cc(/C=N/NC(=O)c2cc3c(ccc4ccccc43)o2)ccc1O	·	-4	-9	-6.5	0.0	·	7%	2.2
COc1ccc(N2CCN(CC(O)COc3cc(C)ccc3C)CC2)cc1 (stereo not drawn)	-0.2	-2	2	17	-0.6	-2	16%	-1.0
CCCN1C2=NCCN2c2ccccc21	0.2	0	-1	·	0.9	·	?	-1.0
CCCn1c(-c2ccc(OC)cc2)nc2ccccc21	-0.3	31	24	·	-0.6	11	-9%	1.9
Cc1cc(=O)oc2cc(OCC(=O)Nc3cccnc3)ccc12	·	-1	·	-2.3	0.2	·	1%	3.2
CCOC(=O)CSc1nnc(-c2ccccc2)c(=O)[nH]1	-1.9	-6	-2	·	0.1	-4	1%	1.3
CCOC(=O)c1cnc2c(-c3ccccc3)cnn2c1N	2.6	3	-4	·	-3.5	0	-2%	4.7
Cc1ccc(C(=O)Nc2ccc(OCc3ccccc3)cc2)cc1[N+](=O)[O-]	-3.5	1	15	·	-0.3	-5	24%	-27
C[C@@H](C(=O)CC(=O)OC(C)(C)C)[C@@H](O)c1ccccc1	2.5	-6	-10	1.8	-0.1	-20	·	2.9
CC1COc2ccccc2N1C(=O)c1ccccc1Cl (stereo not drawn)	1.8	-4	-7	-0.7	1.0	19	0%	1.6
Cn1c(=O)[nH]c(=O)c2c1nc1n2CCCN1CCc1ccccc1	-0.5	-8	0	·	0.6	·	-3%	-2.4
COC(=O)c1cnn2c(C(F)(F)F)cc(-c3ccc(F)cc3)nc12	7.5	2	13	·	-0.5	4	-3%	5.0
CCOC(=O)C1(CCc2ccccc2)CCN(Cc2c(O)cccc2OC)CC1	1.5	20	-9	3.2	1.2	45	?	10
COc1ccc(C(=O)NC(=S)Nc2cccc(S(=O)(=O)N3CCOCC3)c2)cc1	-4.6	-3	2	1.9	0.9	1	7%	1.7
O=C(CCN1C(=O)c2ccc([N+](=O)[O-])cc2C1=O)Nc1ccc(O)cc1C(=O)O	-1.1	-6	-17	-2.4	1.8	-10	-8%	-1.9
O=C(O)c1ccccc1N=Nc1c(O)[nH]c2ccc([N+](=O)[O-])cc12	2.2	-6	5	·	-9.0	-18	26%	1.4
O=C(NCCC(=O)N1CCN(C(=O)c2ccco2)CC1)c1ccc(Br)cc1	-0.5	1	1	-17	-0.9	-1	3%	2.1
Oc1ccc(-c2nc3ccccc3nc2-c2ccccc2)cc1	1.2	0	-28	2.6	-0.2	6	·	-3.3
CCCCn1c(N)c(N(CC(C)C)C(=O)c2ccc(C)o2)c(=O)[nH]c1=O	·	9	·	2.1	-0.3	·	-5%	1.5
CCOc1ccc(CN2CCNC(=O)C2CC(=O)NCCCOc2cccnc2)cc1 (stereo not drawn)	-1.9	-6	-2	-0.1	2.4	-2	·	2.7
O=[N+]([O-])c1ccc(-c2ccn[nH]2)o1	-0.6	-2	49	2.3	0.0	68*	18%	-0.2
O=C(O)c1ccccc1C(=O)Nc1nc(-c2ccc3ccccc3c2)cs1	-0.3	·	2	-0.2	-0.9	-15	4%	-1.7
COc1cc(C(CC(=O)N2CCOCC2)c2c(OC)cc(OC)c3ccc(=O)oc23)cc(OC)c1OC (stereo not drawn)	3.5	-19	-7	-74	-0.4	5	·	-2.7
CCOC(=O)c1c(O)c2c(n(Cc3ccco3)c1=O)CCCC2	1.6	-6	-4	·	-0.2	3	2%	3.9
O=C1NCCN1c1ccc(CN2CCN(C3CCCCC3)C(CCO)C2)cc1 (stereo not drawn)	-1.4	-4	2	-1.1	0.8	-8	·	-0.1
O=S(=O)(c1ccccc1)N1CCC(O)(CSc2ccccc2)CC1	-2.1	-1	0	0.6	0.4	5	·	-4.9
CCN(CCNC(=O)c1ccc(CSc2nc3ccncc3[nH]2)cc1)c1ccccc1	?	·	-3	4.5	-0.2	11	·	-2.0
Cc1c(/C=C/C(=O)c2cccs2)cnn1C	10	·	-6	·	-1.0	1	·	0.3
C=CCC(NC(=O)c1ccc(C#N)cc1)C(=O)NCCC (stereo not drawn)	·	-10	·	-1.1	-0.4	·	·	-0.3
CC1CC(C)CN(C(=O)COC(=O)Cc2ccc(Cl)cc2)C1 (stereo not drawn)	2.2	-3	-1	-2.9	0.2	-9	5%	-2.4
COc1ccc(CN2CCNC(=O)C2CC(=O)NCCc2cnccn2)cc1C (stereo not drawn)	4.7	·	-10	1.5	·	-5	·	·
O=C(c1cccc2ccccc12)N1CCN(c2ccccc2F)CC1	5.9	-9	8	·	-0.4	-6	-10%	2.2
O=C(CSc1nnc(SCC(=O)c2ccco2)s1)c1ccco1	1.3	4	3	·	0.5	33	?	3.5
O=S(=O)(c1cccs1)N1CCN(S(=O)(=O)c2cccs2)CC1	0.3	1	27	-5.5	0.2	-3	3%	-5.3
COc1cccc(-c2c(C(=O)N/N=C/c3ccc(C)o3)nnn2-c2nonc2N)c1	2.7	-2	4	-4.7	2.1	7	-4%	0.0
CCN(CC)S(=O)(=O)c1ccc(N2CCOCC2)c(NC(=O)C2CC2)c1	-2.0	-2	-6	-0.1	1.3	4	2%	5.4
O=C(Nc1ccc(F)cc1F)c1c(C(F)(F)F)ccnc1Oc1ccc(Cl)cc1	1.1	·	15	0.5	0.1	13	3%	-8.4

More entries follow:
SMILES	RanGTP-Impb inh	Beta apoptosis	Calb FLC	AF4-AF9 inh	A1 inh	T cruzi inh	Vif TR-FRET	LANA-H2B inh
COc1ccc(C(=O)CSc2nnc(CNC(=O)c3ccc(S(=O)(=O)N(C)C)cc3)o2)cc1	-3.4	1	11	-3.9	-0.3	-7	·	5.7
NCc1cc2c3c(c1)CCCN3CCC2	13	-5	-4	51*	-0.1	-13	·	-5.5
COc1ccc(CNC(=O)C2CSC(=O)C2)cc1 (stereo not drawn)	2.2	-16	-4	·	0.1	56*	-5%	-1.6
CCOC(=O)c1ccc(NC2=CC(=O)C(=O)c3ccccc32)cc1	0.4	40	4	·	-1.0	47	11%	-1.3
C/C(=N\NC(=S)NCc1ccccc1)c1ccc(C)o1	-2.1	-9	-16	3.6	1.3	-1	?	-3.2
COc1ccc(-n2nnc3c(=O)n(CC(=O)N4CCCC4)cnc32)cc1	-2.2	9	12	·	0.5	2	-2%	-4.1
CCCCCn1c(C)c2c(OCC)cccc(=O)c2c1C	3.1	-3	4	1.4	0.9	32	?	-7.1
Cc1cc(N2CCOCC2)nc(-c2ccc(Br)cc2)n1	?	-3	-2	·	0.4	0	?	6.7
COc1ccc(OCC(O)CN2CCN(c3ncccn3)CC2)cc1 (stereo not drawn)	-1.9	1	?	2.1	-1.0	3	?	-1.1
CCc1ccc(C(=O)COC(=O)CNC(=O)c2ccco2)cc1	3.0	-11	-4	·	0.6	5	-3%	3.2
O=C(O)c1cc(NCc2ccccc2C(F)(F)F)ccc1N1CCOCC1	4.2	5	15	·	0.2	-8	11%	-0.5
CCN(CC)CCSc1nc2ccc(OC)cc2[nH]1	1.3	-5	5	-1.7	0.6	13	·	1.0
O=C(NC1CCCC1)C1CCN(C(=O)Nc2cccc(Cl)c2)CC1	0.4	1	-3	3.9	0.9	-8	·	1.9
Cc1nnc(SCC(=O)Nc2ccc3c(c2)OCO3)s1	-4.5	·	-3	0.4	·	2	·	·
CC(C)(C)CC(=O)Nc1nnc(SCC(=O)NC2CCCC2)s1	-0.1	·	7	-1.0	-0.3	-6	·	1.3
CN1CCN(C(=O)c2ccc(-c3cccs3)s2)CC1	3.3	4	-8	0.4	-3.0	16	·	-4.4
O=CN1CCN(C(=O)c2cc3cc(Cl)ccc3[nH]2)CC1	-2.7	·	-5	-2.6	1.1	-2	-7%	2.5
CCOc1ccc(OCC)c(S(=O)(=O)NCc2ccccn2)c1	8.7	0	-15	-20	0.5	-3	2%	1.1

Screening data: PubChem BioAssay, several laboratories
